High-throughput results as filed in PubChem.
Vaccinia stage = blocks a specific stage of Vaccinia orthopoxvirus infection, primary screen, cell-based, single point; AID 1053133, 2014; activity change (mCherry), % (concentration not given with the values); Vaccinia-infected cells, mCherry/Venus stage reporter fluorescence; active compounds read low; some inactives read as strong as hits; 89,000 tested, 0.01% active;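 active = mCherry past -33% and 40 or more points under the early reporter, replicates agreeing; inconclusive = past -33% without that gap or agreement; tested in A549 cells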;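 also: scaled between vehicle wells and reference inhibitor wells; 23 nL library stock went into each well; one replicate is shown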
Vaccinia stage Venus = further read-out of Vaccinia stage, marked with its call; activity change (Venus), %; measured here: Venus reporter, other viral stage;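 negative = less Venus signal; first of two replicates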
* hit, by the source's call; ? = inconclusive; nt = not tested or not shown; & = joins results of further samples. The list is partial, so the mix of outcomes need not match the whole.

Start of the data: the first 5 compounds, ahead of the listing:
Every second line gives: Vaccinia stage | Vaccinia stage Venus
> COC(=O)C[C@@H]1CC[C@@H]2[C@H](COc3ccc(NC(=O)c4cscn4)cc3C(=O)N2C)O1
  -5 | -6
> C[C@@H]1CN([C@H](C)CO)C(=O)c2cc(NC(=O)Cc3ccccc3)ccc2O[C@@H]1CN(C)Cc1ccc(C(=O)Nc2ccccc2N)cc1
  -1 | 1
> CN(C)CC(=O)N[C@@H]1CC[C@@H](CCNC(=O)Nc2ccc(Cl)cc2)O[C@@H]1CO
  -6 | 9
> CO[C@H]1CN(C)C(=O)c2ccc(NS(C)(=O)=O)cc2OC[C@H](C)NC[C@H]1C
  -11 | -9
> O=C(NC[C@@H]1CC[C@H]2[C@H](CN2S(=O)(=O)c2ccccc2[N+](=O)[O-])O1)Nc1ccccc1
  8 | 4

All compounds of this part, from the first entry:
Every second line gives: Vaccinia stage | Vaccinia stage Venus
> COC(=O)C[C@@H]1CC[C@@H]2[C@H](COc3ccc(NC(=O)c4cscn4)cc3C(=O)N2C)O1
  -5 | -6
> C[C@@H]1CN([C@H](C)CO)C(=O)c2cc(NC(=O)Cc3ccccc3)ccc2O[C@@H]1CN(C)Cc1ccc(C(=O)Nc2ccccc2N)cc1
  -1 | 1
> CN(C)CC(=O)N[C@@H]1CC[C@@H](CCNC(=O)Nc2ccc(Cl)cc2)O[C@@H]1CO
  -6 | 9
> CO[C@H]1CN(C)C(=O)c2ccc(NS(C)(=O)=O)cc2OC[C@H](C)NC[C@H]1C
  -11 | -9
> O=C(NC[C@@H]1CC[C@H]2[C@H](CN2S(=O)(=O)c2ccccc2[N+](=O)[O-])O1)Nc1ccccc1
  8 | 4
> C[C@@H]1CN([C@H](C)CO)C(=O)Cc2cc(NS(=O)(=O)c3cn(C)cn3)ccc2O[C@@H]1CN(C)Cc1ccc(C(=O)O)cc1
  9 | -1
> Cc1noc(C)c1NC(=O)N(C)C[C@H]1Oc2ccc(N(C)C)cc2C(=O)N([C@@H](C)CO)C[C@H]1C
  2 | 8
> C[C@@H]1CN([C@H](C)CO)C(=O)c2cc(NS(=O)(=O)c3ccc(Cl)cc3)ccc2O[C@H]1CN(C)S(=O)(=O)c1ccc(Cl)cc1
  -8 | -2
> C[C@@H]1CN([C@@H](C)CO)C(=O)c2cc(C#C[C@@H](C)O)cnc2O[C@H]1CN(C)C(=O)Nc1ccc(C(F)(F)F)cc1
  2 | 0
> COC(=O)C[C@@H]1C[C@@H]2c3cc(NS(C)(=O)=O)ccc3O[C@@H]2[C@H](CO)O1
  -8 | -3
> C[C@@H]1CN([C@H](C)CO)C(=O)c2cc(NC(=O)C3CCCCC3)ccc2O[C@@H](C)CCCCO[C@H]1CN(C)S(=O)(=O)c1ccc(Cl)cc1
  -19 | -4
> Cc1noc(C)c1S(=O)(=O)Nc1ccc2c(c1)C(=O)N([C@H](C)CO)C[C@@H](C)[C@@H](CN(C)Cc1ccc(C(F)(F)F)cc1)O2
  -21 | -19
> Cc1ccc(S(=O)(=O)N[C@H]2CC[C@@H](CCn3cc(C4CCCCC4)nn3)O[C@H]2CO)cc1
  -13 | 0
> C[C@H](CO)N1C[C@H](C)[C@@H](CN(C)S(=O)(=O)c2cccs2)Oc2ccc(NC(=O)Cn3cnnn3)cc2CC1=O
  9 | 6
> C[C@@H]1CN([C@H](C)CO)C(=O)Cc2cc(NS(=O)(=O)c3cn(C)cn3)ccc2O[C@H]1CN(C)Cc1ccncc1
  3 | -2

Remaining list, next part
Every second line gives: Vaccinia stage | Vaccinia stage Venus
> C[C@@H]1CN([C@@H](C)CO)C(=O)Cc2cc(NS(=O)(=O)c3cn(C)cn3)ccc2O[C@@H]1CN(C)S(C)(=O)=O
  13 | 19
> C[C@H]1CN([C@@H](C)CO)S(=O)(=O)c2ccc(-c3cccnc3)cc2O[C@@H]1CN(C)C(=O)C1CCC1
  14 | 4
> C[C@@H]1CN([C@H](C)CO)C(=O)c2cccc(NS(=O)(=O)c3cccs3)c2O[C@@H]1CN(C)Cc1ccncc1
  15 | 10
> COc1ccccc1NC(=O)N[C@@H]1CC[C@@H](CCn2cc(C3(O)CCCC3)nn2)O[C@@H]1CO
  4 | 7
> C[C@H](CO)N1C[C@H](C)[C@H](CN(C)C(=O)Nc2ccccc2)OCCCC[C@H](C)Oc2ccc(NS(=O)(=O)c3ccccc3)cc2C1=O
  -33 | -26
> O=C(Nc1ccccc1)N[C@H]1CC[C@H](CCn2cc(-c3ccccc3F)nn2)O[C@@H]1CO
  11 | 12
> CC(C)NC(=O)N(C)C[C@H]1Oc2c(NC(=O)c3ccc(-c4nccs4)cc3)cccc2C(=O)N([C@@H](C)CO)C[C@H]1C
  -13 | -12
> C[C@H](CO)N1C[C@H](C)[C@H](CN(C)C(=O)Cc2ccccc2)Oc2ncc(C#Cc3ccccc3F)cc2C1=O
  -35 | -31
> CC(C)NC(=O)N(C)C[C@@H]1Oc2cc(-c3ccccc3)ccc2S(=O)(=O)N([C@H](C)CO)C[C@@H]1C
  -7 | -4
> COc1cccc(-c2ccc3c(c2)[C@H]2[C@H](CCN2C(=O)CN2CCOCC2)[C@H](CO)N3)c1
  -15 | -7
> COCC(=O)N(C)C[C@H]1Oc2cc(-c3cccc(F)c3)ccc2S(=O)(=O)N([C@@H](C)CO)C[C@H]1C
  9 | 12
> Cc1ccccc1-c1ccc2c(c1)O[C@@H](CN(C)Cc1ccc(C(=O)O)cc1)[C@H](C)CN([C@H](C)CO)S2(=O)=O
  6 | -8
> CCNC(=O)[C@H]1[C@H](CO)[C@H]2Cn3c(ccc(-c4ccncc4)c3=O)[C@H]2N1Cc1cc(F)ccc1F
  33 | 26
> COc1ccccc1-c1cn(CC[C@@H]2CC[C@@H](NC(=O)c3ccccc3F)[C@H](CO)O2)nn1
  -1 | 1
> C[C@@H]1CN([C@H](C)CO)C(=O)CCCn2nncc2CO[C@@H]1CN(C)S(=O)(=O)c1ccc(F)cc1
  12&3 | 12&4

(listing goes on)
Every second line gives: Vaccinia stage | Vaccinia stage Venus
> CN1c2ccc(Br)cc2[C@@H]2[C@@H](CCN2C(=O)C2CCCC2)[C@@H]1CO
  -34 | -22
> CN1C(=O)c2cc(NC(=O)c3ccccc3)ccc2OC[C@@H]2O[C@@H](CC(=O)NC3CCCC3)CC[C@H]21
  7 | 1
> C[C@H](CO)N1C[C@H](C)[C@H](CN(C)Cc2ccccc2C(=O)O)Oc2ncc(C3=CCCC3)cc2C1=O
  24 | 14
> C[C@H]1CN([C@@H](C)CO)C(=O)c2c(c3ccccc3n2C)-c2ccccc2CO[C@@H]1CN(C)C(=O)Nc1ccc2c(c1)OCO2
  ? | nt
> Cc1noc(C)c1NC(=O)Nc1ccc2c(c1)CC(=O)N([C@H](C)CO)C[C@H](C)[C@H](CN(C)S(=O)(=O)c1ccc(F)cc1)O2
  20 | 10
> O=C(C[C@H]1C=C[C@H](NC(=O)CC2CC2)[C@@H](CO)O1)NCC(F)(F)F
  0 | 0
> Cc1cccc(-c2ccc([C@H]3[C@@H](CO)N4CCCCN(C(=O)NC(C)C)C[C@@H]34)cc2)c1
  -9 | -27
> COc1ccc(S(=O)(=O)N(C)C[C@@H]2Oc3ccc(NC(=O)NC4CCCCC4)cc3CC(=O)N([C@H](C)CO)C[C@@H]2C)cc1
  -19 | -9
> C[C@@H]1CN([C@@H](C)CO)C(=O)c2cc(-c3ccncc3)cnc2O[C@H]1CN(C)C(=O)c1ccc(F)cc1
  25 | 12
> O=C(N[C@@H]1CC[C@@H](CCNS(=O)(=O)c2ccccc2)O[C@H]1CO)c1cnccn1
  -2 | -3
> Cc1ccc(S(=O)(=O)Nc2ccc3c(c2)C(=O)N([C@@H](C)CO)C[C@@H](C)[C@@H](CN(C)Cc2ccc4c(c2)OCO4)OCCCC[C@H](C)O3)cc1
  ? | nt
> COc1cccc(CNC(=O)C[C@@H]2C=C[C@@H](NC(=O)C3CCC3)[C@@H](CO)O2)c1
  1 | -2
> Cc1noc(C)c1S(=O)(=O)N(C)C[C@@H]1Oc2ccc(NS(=O)(=O)c3ccc(Cl)cc3)cc2CC(=O)N([C@H](C)CO)C[C@@H]1C
  -6 | -2
> C[C@H](CO)N1C[C@H](C)[C@H](CN(C)S(=O)(=O)c2ccc(F)cc2)OCCCC[C@H](C)Oc2ccc(NC(=O)Nc3ccc(C(F)(F)F)cc3)cc2C1=O
  8 | 3
> COc1cccc(NC(=O)N2C[C@@H](O)COC[C@@H]3O[C@@H](CC(=O)NC4CCCC4)CC[C@H]32)c1
  4 | -1

Additional structures follow.
Every second line gives: Vaccinia stage | Vaccinia stage Venus
> C[C@@H]1CN([C@@H](C)CO)C(=O)c2cc(-c3ccc(F)cc3)cnc2O[C@H]1CN(C)C(=O)CN(C)C
  11 | 7
> C[C@@H]1CN([C@@H](C)CO)C(=O)c2cc(C#Cc3cccc(F)c3)cnc2O[C@H]1CN(C)Cc1ccccn1
  -25 | -19
> C[C@@H]1CN([C@@H](C)CO)C(=O)c2cc(NS(=O)(=O)c3ccccc3)ccc2O[C@@H]1CN(C)Cc1ccc(Oc2ccccc2)cc1
  ? | nt
> C[C@@H]1CN([C@H](C)CO)C(=O)c2cc(NS(=O)(=O)c3ccc(F)cc3)ccc2O[C@@H]1CN(C)C(=O)Nc1ccc(F)cc1
  14 | 11
> CCC(=O)N(C)C[C@@H]1Oc2cc(-c3ccc(OC)cc3)ccc2S(=O)(=O)N([C@H](C)CO)C[C@@H]1C
  -7 | -6
> CO[C@@H]1CN(C)C(=O)c2ccc(NC(=O)Cc3ccccc3)cc2OC[C@@H](C)N(CCc2ccccc2)C[C@H]1C
  -13 | -7
> C[C@@H]1CN([C@H](C)CO)C(=O)Cc2cc(NS(=O)(=O)c3cn(C)cn3)ccc2O[C@H]1CN(C)CC1CC1
  12 | 7
> C[C@H](NC(=O)C[C@H]1CC[C@H](NC(=O)C2CCC2)[C@H](CO)O1)c1ccccc1
  -7 | -8
> O=C(NC[C@H]1N[C@H](CO)[C@H]1c1ccc(-c2ccccc2F)cc1)c1ccccn1
  -17 | 1
> C/C=C/c1cnc2c(c1)C(=O)N([C@@H](C)CO)C[C@@H](C)[C@H](CN(C)C(=O)NCCC)O2
  9 | 5
> Cc1noc(C)c1S(=O)(=O)N(C)C[C@@H]1Oc2ccc(NS(C)(=O)=O)cc2C(=O)N([C@@H](C)CO)C[C@@H]1C
  0 | 0
> C[C@H](CO)N1C[C@H](C)[C@@H](CN(C)Cc2ccc3c(c2)OCO3)Oc2c(NC(=O)c3cnccn3)cccc2C1=O
  1 | -3
> Cc1ccc(-c2ccc3c(c2)O[C@H](CN(C)C(=O)Nc2ccc(F)cc2)[C@@H](C)CN([C@H](C)CO)S3(=O)=O)cc1
  ? | nt
> CN(C)C(=O)C[C@H]1CC[C@H]2[C@@H](COC[C@@H](O)CN2CC2CCOCC2)O1
  4 | -3
> COc1ccc2c3c([nH]c2c1)[C@@H](CO)N(C(=O)C1CC1)CC31CCN(S(C)(=O)=O)CC1
  14 | 6
> C[C@@H]1CN([C@@H](C)CO)C(=O)Cc2cc(NS(=O)(=O)c3ccccc3)ccc2O[C@@H]1CN(C)Cc1ccncc1
  28 | 16
> C[C@@H]1CN([C@@H](C)CO)C(=O)c2cc(NC(=O)Nc3ccc4c(c3)OCO4)ccc2O[C@@H](C)CCCCO[C@@H]1CN(C)C
  16 | 12
> C[C@@H]1CN([C@@H](C)CO)C(=O)c2cccc(NC(=O)Nc3ccc(F)cc3)c2O[C@@H]1CN(C)Cc1ccc(Cl)c(Cl)c1
  ? | nt

Profiles as entered above.
Results for CN(C)C(=O)C[C@H]1CC[C@H]2[C@@H](COC[C@@H](O)CN2CC2CCOCC2)O1 = Vaccinia stage: 4; Vaccinia stage Venus: -3
Results for C[C@@H]1CN([C@@H](C)CO)C(=O)c2cc(-c3ccc(F)cc3)cnc2O[C@H]1CN(C)C(=O)CN(C)C = Vaccinia stage: 11; Vaccinia stage Venus: 7
